Rango-impB inh = qHTS Assay for Inhibitors of Rango (Ran-regulated importin-beta cargo) - Importin beta complex formation. hit rate 0.031% among 340,000. Potency, µM (titrated, usually from 92.2 µM), for inactives: at the top dose inhibition of complex formation. Rango CFP/YFP FRET sensor + importin beta, 45 min; active = rising FRET ratio curve, often small or poorly fitted; inconclusive = mostly compound fluorescence or quenching in the first reads; inactive = flat curves in all reads;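 further: potency means the concentration at half of the fitted maximal effect; 0% = DMSO wells and 100% = buffer wells lacking importin beta; nearly all actives have a fitted effect of over 15% in size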
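FRET biosensor Rango (snurportin 1 IBB between N-terminal EYFP and C-terminal Cerulean), 50 nM in PBS/1 mM DTT/0.02% Tween-20/0.1% BSA, preincubated 5 min RT with compound; 0.125 microM importin beta added, 45 min RT, CFP/YFP FRET ratio read.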
GLA inh pH 4.5 = qHTS Assay for Inhibitors of Human alpha-Galactosidase at pH 4.5. AID 1467, 2008. 230,000 tested, under 10 active. purified enzyme, 4-MU-alpha-Gal fluorescence, pH 4.5. activity change, negative = inhibition, % at 105 µM. Alpha-galactosidase A (Homo sapiens), P06280; inconclusive = small, poorly fitted or top-dose-only inhibition, or a rising curve; inactive = flat fitted curve, though single readings scatter; no compound was filed as active;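 further: 0% = full activity with enzyme and -100% = basal without enzyme; dose as in the result columns while the protocol names 77 µM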
Target sequence (P06280 whole entry, looked up): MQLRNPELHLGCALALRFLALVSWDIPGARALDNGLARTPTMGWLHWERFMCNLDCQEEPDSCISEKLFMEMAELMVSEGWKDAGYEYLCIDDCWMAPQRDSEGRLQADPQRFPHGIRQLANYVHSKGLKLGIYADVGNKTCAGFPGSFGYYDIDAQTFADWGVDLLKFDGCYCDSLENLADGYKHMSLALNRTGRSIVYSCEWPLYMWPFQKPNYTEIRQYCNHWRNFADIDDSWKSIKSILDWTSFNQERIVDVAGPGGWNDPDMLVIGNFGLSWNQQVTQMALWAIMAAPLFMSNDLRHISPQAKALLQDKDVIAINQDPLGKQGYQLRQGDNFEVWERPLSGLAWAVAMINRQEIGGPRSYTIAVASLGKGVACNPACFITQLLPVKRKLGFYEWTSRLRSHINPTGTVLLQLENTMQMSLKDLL
miR-21 reporter = qHTS Assay for Modulators of miRNAs and/orActivators of miR-21. AID 2288, 2010. Potency, µM (top dose mostly 38.3 µM), for the others: at the highest dose reporter change, positive = more light. HeLa miR-21 FLuc reporter, luciferase, 48 h. 340,000 tested, under 10 active; active = well fitted rising curve with a large enough effect; inconclusive = small, poorly fitted or top-dose-only effect; inactive = no such curve, though single readings can be large or run the other way;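 further: % of control where 0% means no effect; miR-21 action dims this reporter so a rising signal means less miR-21 action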
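HeLa cells endogenously expressing miR-21, stably carrying CMV-driven firefly luciferase with a downstream miR-21 binding site, 2000 cells/well. Titrations up to approximately 40 uM, 48 hours; luciferase luminescence read.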
Rango dissoc inh = qHTS Assay for Inhibitors of RanGTP induced Rango (Ran-regulated importin-beta cargo) - Importin beta complex dissociation; Potency, µM (highest dose often 46.1 µM), inactives show top-dose activity change, negative = inhibition; Biochemical FRET Rango-importin beta, RanGTP-induced dissociation; AID 540253, 2011; Snurportin-1 (Homo sapiens) + GTP-binding nuclear protein Ran (Homo sapiens) + Importin …; hit rate 0.071% among 340,000; active means falling FRET ratio curve, often poorly fitted, with flat reads before Ran was added; inconclusive means other falling curves, or compound fluorescence or quenching; inactive means flat or rising ratio curve;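 further: potency means the concentration at half of the fitted maximal effect; % of control where 0% means no effect; nearly all actives have a fitted effect of over 45% in size; -100% = wells without RanGTP and RCC1; the record marks most hits as doubtful in a second field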
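Quantitative HTS using a FRET biosensor: 0.1 uM Rango, 0.25 uM importin beta, 0.6 uM Ran, 2 mM GTP, 0.2 uM RCC1 final, PBS with DTT, Tween-20 and BSA. Post-read taken 45 min after Ran addition.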
* marks the source's active call; other numbers are inactive results; ? = inconclusive; nt = not tested or not shown; & = joins results of further samples.

Value order: Rango-impB inh | GLA inh pH 4.5 | miR-21 reporter | Rango dissoc inh
- COc1ccc(NS(=O)(=O)c2cccc(C(=O)N/N=C/c3cn(-c4ccccc4)nc3-c3ccc(OC)cc3)c2)cc1
  4.4% | 1 | -13% | 17%
- COc1cc(NC(=O)c2noc3c2CCCC3)c(OC)cc1Cl
  ? | 3 | -4% | 1%
- CSc1ncc2ncn(C3OC(CO)C(O)C3O)c2n1 (centres undefined)
  2.0% | 0 | -5% | 20%
- O=C1NN(c2ccccc2)C(=O)/C1=C\c1ccccc1
  3.4% | nt | -4% | 2%
- Cn1c(N)c(C(=O)COC(=O)COc2ccc(Br)cc2)c(=O)n(C)c1=O
  3.0% | nt | nt | -13%
- Cc1ccc(C(=O)/C=C/C(=O)c2ccc(C)cc2)cc1
  -0.1% | 9 | 0% | 6%
- Cc1c(C)c2ccc(OCC(=O)NC(Cc3c[nH]c4ccc(O)cc34)C(=O)O)c(C)c2oc1=O (centres undefined)
  2.8% | nt | 0% | -3%
- CC1Cc2ccccc2N1C(=O)CN1CCC(C(N)=O)CC1 (centres undefined)
  -0.3% | 4 | -1% | 9%
- C[C@H](OC(=O)NCc1ccc(C(F)(F)F)cc1)[C@@H]1O[C@@]2(C)CCC[C@@H]1O2
  2.2% | nt | nt | 0%
- O=C(Cn1cc(C(F)(F)F)cc(Cl)c1=O)NCc1ccc(Cl)cc1Cl
  -1.9% | nt | -14% | -19%
- c1cnc(Sc2ccc3nnnn3n2)nc1
  0.2% | ? | 6% | 2%
- Brc1ccc(NCc2nnc3n2CCCCC3)cc1
  0.2% | 8 | -7% | -3%
- CC(C)CCNC(=O)C(c1ccco1)N(CC1CCCO1)C(=O)Cn1nnc2ccccc21 (centres undefined)
  0.2% | 7 | -5% | 0%
- CCSc1nnc(NC(=O)CSc2nc3c(cc2C#N)CCCC3)s1
  ? | -25 | -41% | ?
- Cc1cc(N2CCN(c3ccccc3)CC2)nc(-c2ccccc2)n1
  3.1% | 0 | -9% | 13%
- COc1cccc(NC(=O)N2CCCC2C(=O)NCC(C)C)c1 (centres undefined)
  -0.8% | 3 | -4% | 0%
- O=C(Cn1c(=O)oc2ccccc21)Nc1cccc(Cl)c1
  0.2% | nt | 6% | -3%
- CSc1nsc(SCC(=O)Nc2ccc(OC(C)=O)cc2)n1
  -3.1% | 5 | -40% | -5%
- CCCc1cc(C(=O)Nc2cc(Cl)ccc2O)no1
  -0.4% | nt | -64% | 13%
- C=CCc1c(C)[nH]c(=O)[nH]c1=O
  -0.1% | -3 | 0% | 18%
- O=C(c1cccc(NS(=O)(=O)c2cccc(C(F)(F)F)c2)c1)N1CCOCC1
  -0.8% | nt | 0% | -12%
- Cc1ccc(S(=O)(=O)N(C)CC(=O)Nc2ccccc2)cc1
  -0.3% | -2 | -1% | 2%
- CC/C(=N\NC(=O)c1cccnc1)c1ccc2c(c1)OCCO2
  1.3% | 5 | -16% | 3%
- CCn1cc(/C=C(\NC(=O)c2ccc(OC)c(OC)c2)C(=O)NCCCN2CCOCC2)c2ccccc21
  -0.2% | nt | 1% | -6%
- C[C@]12C=CC(=O)C=C1CCC1C3CC[C@](O)(C(=O)CO)[C@@]3(C)CC3OC312 (some centres undefined)
  -1.2% | nt | -10% | 3%
- C/C(=N\NC(=O)c1c(C)nc2ccccn12)c1ccco1
  -2.3% | 4 | -52% | -3%
- O=C(c1cnc(-c2ccc(Cl)cc2)s1)c1ccc(Cl)cc1Cl
  -2.4% | 7 | 0% | -6%
- C[C@H]1CN=C(N(C)C)N1CCCCc1ccccc1
  -1.0% | nt | nt | 7%
- CC(C)[C@H](NC(=O)c1nn(Cc2ccccc2)c(=O)c2ccccc12)C(=O)O
  0.4% | nt | -1% | 12%
- Cn1c(=O)c2c(nc(CN3CCC(C(N)=O)CC3)n2CCCc2ccccc2)n(C)c1=O
  -0.3% | 3 | -4% | 11%

3 entries from above in another layout:
SMILES | Rango-impB inh | GLA inh pH 4.5 | miR-21 reporter | Rango dissoc inh
COc1cc(NC(=O)c2noc3c2CCCC3)c(OC)cc1Cl | ? | 3 | -4% | 1%
CSc1ncc2ncn(C3OC(CO)C(O)C3O)c2n1 (centres undefined) | 2.0% | 0 | -5% | 20%
O=C1NN(c2ccccc2)C(=O)/C1=C\c1ccccc1 | 3.4% | nt | -4% | 2%

Looked up above.
In Rango-impB inh, CC(C)[C@H](NC(=O)c1nn(Cc2ccccc2)c(=O)c2ccccc12)C(=O)O shows 0.4%
In miR-21 reporter, C=CCc1c(C)[nH]c(=O)[nH]c1=O shows 0%
In GLA inh pH 4.5, CC/C(=N\NC(=O)c1cccnc1)c1ccc2c(c1)OCCO2 shows 5

One compound at a time, as listed above.
C/C(=N\NC(=O)c1c(C)nc2ccccn12)c1ccco1 reads Rango-impB inh = -2.3%; GLA inh pH 4.5 = 4; miR-21 reporter = -52%; Rango dissoc inh = -3%
CC(C)CCNC(=O)C(c1ccco1)N(CC1CCCO1)C(=O)Cn1nnc2ccccc21 (centres undefined) reads Rango-impB inh = 0.2%; GLA inh pH 4.5 = 7; miR-21 reporter = -5%; Rango dissoc inh = 0%

Additional results follow.
Value order: Rango-impB inh | GLA inh pH 4.5 | miR-21 reporter | Rango dissoc inh
- Cc1ccccc1C(=O)N1CCN(c2ccc(NC(=O)c3cccs3)cc2)CC1
  4.4% | nt | 7% | 6%
- Nc1ccc(Nc2ccccc2)cc1
  -3.6% | -2 | 0% | -9%
- CC(=O)N(C1=C(Cl)C(=O)c2ccccc2C1=O)C1CCCCC1
  1.4% | -2 | ? | 1%
- COC(=O)[C@@]1(Cc2ccccc2)[C@H]2c3cc(C(=O)N4CCCC4)n(Cc4ccsc4Br)c3C[C@H]2CN1C(=O)c1ccccc1
  nt | -6&-4 | 12% | nt
- C=CCn1c(SC)nccc1=O
  -0.6% | nt | nt | 19%
- Cc1nc(NC(=O)/C=C/c2ccccc2)sc1C(=O)N(C)C
  ? | -1 | -63% | 0%
- CC(=O)c1cccc(S(=O)(=O)NC2CC2)c1
  -1.0% | 3 | -8% | 12%
- O=C(COc1ccc(Cl)cc1Br)N1CCN(c2ncccn2)CC1
  1.1% | nt | nt | 9%
- CC(C)CC(CC(C)C)=NNC(=O)c1ccc(CSc2nncn2C)cc1
  0.7% | 3 | -3% | 0%
- O=C1CCC(C(=O)N2CCSCC2)CN1Cc1cccc(C(F)(F)F)c1 (centres undefined)
  -1.8% | nt | -2% | 15%
- COc1ccc(CN(CCC(C)C)S(=O)(=O)c2ccccc2Br)cc1
  1.2% | nt | nt | -4%
- CCN1CCN(c2cc(C)c3cc(NC(=S)N4CC(C)CC(C)C4)ccc3n2)CC1 (centres undefined)
  -2.2% | -3 | -2% | -19%
- CCOC(=O)C1=C(NC(=S)NC(=O)c2ccccc2)c2ccccc2CC1(C)CC (centres undefined)
  -2.4% | -8 | 27% | -9%
- COc1ccc(N2CCN(C(=O)CCCn3c(=O)c4cccn4c4cccnc43)CC2)cc1
  -1.3% | nt | 1% | 6%
- CCCn1nc(NS(=O)(=O)c2ccccc2[N+](=O)[O-])c2cc3ccccc3nc21
  -2.1% | nt | -6% | -5%
- COc1ccc(S(=O)(=O)N2CCOC23CCN(C(=O)c2c(F)cccc2Cl)CC3)cc1
  1.4% | nt | -4% | 0%
- COc1ccc(C(=O)N2CCC(C(=O)N3CCN(c4ccc(OC)cc4)CC3)CC2)cc1
  2.8% | nt | -6% | -3%
- CC(=O)COc1cc2c(-c3cc4ccccc4o3)cc(=O)oc2cc1C
  -4.5% | nt | -10% | -7%
- Cc1cc(C)cc(-n2ncc3c2CCCC3NC(=O)c2ccccc2N2CCOCC2)c1 (centres undefined)
  ? | nt | 22% | -12%
- COCCn1c(SCC(=O)Nc2ccc(S(=O)(=O)N(C)C)cc2)nc2ccccc21
  -6.6% | -4 | 13% | 1%
- NC(=O)c1csc(-c2ccncc2)n1
  -0.2% | 1 | 2% | 1%
- CC1CCCCN1C(=O)c1cnn2c(C(F)(F)F)cc(-c3ccco3)nc12 (centres undefined)
  ? | -10 | -5% | 9.2µM*
- O=C(O)C(C(O)c1ccc([N+](=O)[O-])cc1)[n+]1ccccc1 (centres undefined)
  ? | nt | nt | -11%
- CCOc1ccc(/C=C/C(=O)c2c(O)c3ccccc3oc2=O)cc1
  0.8% | 5 | -1% | -4%
- CC1CN(C(=O)c2cccn(Cc3c(Cl)cccc3Cl)c2=O)CC(C)O1 (centres undefined)
  -1.6% | 3 | -3% | -10%
- CCC(c1nnnn1Cc1ccccc1)N1CCN(c2ccccc2)CC1 (centres undefined)
  -2.0% | -2 | 4% | 8%
- O=C1CC(NC23CC4CC(CC(C4)C2)C3)C(=O)N1c1ccc2c(c1)OCO2 (centres undefined)
  2.9% | -1 | -13% | 4%
- CC1=C(C(=O)OC(C)C)[C@@H](c2ccc(C)o2)NC(=O)N1
  -0.9% | 0 | -2% | -10%
- CCCCNc1nc(CC)c2c(c1C#N)CCCC2
  -1.0% | 3 | 1% | -2%
- N=c1ccccn1CC(O)COc1ccccc1 (centres undefined)
  2.8% | 4 | -10% | 12%

Next results.
Value order: Rango-impB inh | GLA inh pH 4.5 | miR-21 reporter | Rango dissoc inh
- C[C@H](CO)N1C[C@H](C)[C@@H](CN(C)S(C)(=O)=O)Oc2c(NC(=O)C3CC3)cccc2C1=O
  -3.8% | nt | nt | -3%
- O=C(NCCc1c[nH]c2ccccc12)OCCSS(=O)(=O)O
  -2.1% | nt | 4% | -19%
- O=C1Nc2cc(C(=O)NCC3CCCO3)ccc2S/C1=C/c1ccccc1F (centres undefined)
  0.8% | nt | -4% | -3%
- COc1ccc(/C=C2/N=C3CCCCCN3C2=O)cc1
  3.3% | -1 | -60% | ?
- Cc1cccc(N(Cc2cc3ccc(C)cc3[nH]c2=O)S(=O)(=O)c2ccccc2)c1
  1.0% | nt | -7% | 0%
- CCOCCN1CCN(c2c(C)c(C)nc3cc(-c4cc(OC)cc(OC)c4)nn23)CC1
  1.3% | -1 | -6% | 0%
- Clc1cccc(-c2nc(-c3ccc(-c4nn[nH]n4)cc3)no2)c1
  0.5% | nt | nt | -4%
- O=C1c2cccc3cccc(c23)C(=O)N1Nc1ccccc1
  -2.9% | 2 | -25% | 3%
- COc1ccc(/C=C/C(=O)c2ccc(O)cc2)cc1COc1ccc(F)cc1
  -0.6% | 0 | 0% | -2%
- CC(=O)Nc1ccc(Cl)c(-c2nc3ncccc3o2)c1
  4.5% | nt | -1% | 9%
- CCCNC(=O)c1ccc(N2CCC3(CC2)CC(c2cccc(Br)c2)=NO3)c(NC(=O)c2cccc(C)c2)c1
  1.0% | nt | nt | 8%
- O=C(Nc1ccc2c(c1)OCO2)c1cc(Cl)ccn1
  0.0% | nt | nt | 16%
- NC(=S)Nc1cccc(Cl)c1
  3.1% | 3 | 12% | 15%
- Cc1oc(-c2ccccc2F)nc1CS(=O)(=O)CC(=O)NCCCN1CCc2ccccc2C1
  -4.1% | -5 | -3% | -13%
- O=C(OCCN=C1NS(=O)(=O)c2ccccc21)C1CC(=O)N(c2ccc(Cl)cc2)C1 (centres undefined)
  0.5% | -2 | -5% | 1%
- O=C1c2ccccc2C(=O)N1CCc1nc2ccccc2c(=O)n1CCCn1ccnc1
  -2.7% | 2 | 0% | -16%
- COc1ccccc1-c1cc(C(F)(F)F)nc(N2CCCCC2)n1
  4.0% | 9 | -3% | 22%
- CN(C)CCCN(C(=O)c1ccc(S(=O)(=O)N2CCCCCC2)cc1)c1nc2c(F)cc(F)cc2s1
  0.6% | nt | nt | 6%
- Cc1nc2ccc(NC(=O)C(F)(F)F)cc2o1
  -1.1% | 2 | -8% | 2%
- O=c1cc(NCc2ccccc2)c2ccccc2o1
  -2.7% | 1 | 2% | 1%
- CC(C)(C)c1cc(-c2nc(N)nc(N)n2)cc(C(C)(C)C)c1
  0.5% | -11 | 0% | 1%

A portion of the library; count on the stated rates, not on these rows.
